# Rango complex inh = inhibitors of Rango-importin beta complex formation. hit rate 0.031% among 340,000. Q14974. Potency, µM (series often up to 92.2 µM), without a hit: at the top dose inhibition of complex formation. Rango CFP/YFP FRET sensor + importin beta, 45 min. AID 540263; active = rising FRET ratio curve, often small or poorly fitted; inconclusive = mostly compound fluorescence or quenching in the first reads; inactive = flat curves in all reads;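 note: potency is the fitted concentration of half-maximal effect; 0% = DMSO wells and 100% = buffer wells lacking importin beta; nearly all actives have a fitted effect of over 15% in size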
# Target sequence (Q14974 whole entry, looked up): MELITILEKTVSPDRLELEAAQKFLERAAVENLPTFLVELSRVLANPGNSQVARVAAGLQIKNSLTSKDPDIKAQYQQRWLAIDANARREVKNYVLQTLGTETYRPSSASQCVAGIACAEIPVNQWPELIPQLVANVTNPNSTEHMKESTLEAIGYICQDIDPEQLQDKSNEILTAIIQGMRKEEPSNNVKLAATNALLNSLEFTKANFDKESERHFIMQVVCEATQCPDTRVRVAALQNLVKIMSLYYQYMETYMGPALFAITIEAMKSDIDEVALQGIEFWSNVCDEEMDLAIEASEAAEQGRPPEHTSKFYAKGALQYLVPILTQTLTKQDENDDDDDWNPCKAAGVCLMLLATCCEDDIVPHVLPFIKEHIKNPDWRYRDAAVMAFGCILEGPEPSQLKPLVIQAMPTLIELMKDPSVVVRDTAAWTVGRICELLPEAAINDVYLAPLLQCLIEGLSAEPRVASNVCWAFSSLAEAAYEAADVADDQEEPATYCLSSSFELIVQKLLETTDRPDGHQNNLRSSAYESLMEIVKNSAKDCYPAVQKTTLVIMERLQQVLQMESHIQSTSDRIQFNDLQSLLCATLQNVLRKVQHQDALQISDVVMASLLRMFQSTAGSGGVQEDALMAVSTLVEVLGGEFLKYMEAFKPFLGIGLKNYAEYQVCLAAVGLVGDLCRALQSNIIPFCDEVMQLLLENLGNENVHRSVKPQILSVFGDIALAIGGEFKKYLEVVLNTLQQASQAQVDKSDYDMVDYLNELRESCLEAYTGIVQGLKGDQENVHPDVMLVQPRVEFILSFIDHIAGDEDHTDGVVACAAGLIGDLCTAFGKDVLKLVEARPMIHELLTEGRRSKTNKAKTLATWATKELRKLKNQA
#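 FRET biosensor (snurportin 1 IBB flanked by EYFP and cerulean), 50 nM, with compound 5 min, then 0.125 microM importin beta in PBS, 1 mM DTT, 0.02% Tween-20, 0.1% BSA. CFP/YFP ratio read after 45 min at room temperature; pre-read flags interference.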
# miR-21 reporter = raises the signal of a miR-21 reporter. HeLa miR-21 FLuc reporter, luciferase, 48 h. Potency, µM (doses to about 38.3 µM), for the others: top-dose reporter change, positive = more light. 340,000 tested, under 10 active; active = well fitted rising curve with a large enough effect; inconclusive = small, poorly fitted or top-dose-only effect; inactive = no such curve, though single readings can be large or run the other way;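 note: % of control where 0% means no effect; miR-21 action dims this reporter so a rising signal means less miR-21 action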
#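 Compounds were titrated across several concentrations (up to approximately 40 uM) and incubated 48 hours with HeLa miR-21-FLuc reporter cells (miR-21 target sequence downstream of FLuc, endogenous miR-21). Readout was firefly luciferase luminescence after lytic detection reagent.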
# Rango dissoc inh = inhibitors of RanGTP-induced Rango-importin beta complex dissociation; Potency, µM (highest dose often 46.1 µM), for inactives: top-dose activity change, negative = inhibition; Biochemical FRET Rango-importin beta, RanGTP-induced dissociation; O95149+P62826; AID 540253; hit rate 0.071% among 340,000; active means falling FRET ratio curve, often poorly fitted, with flat reads before Ran was added; inconclusive means other falling curves, or compound fluorescence or quenching; inactive means flat or rising ratio curve;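 note: potency is the fitted concentration of half-maximal effect; % of control where 0% means no effect; nearly all actives have a fitted effect of over 45% in size; -100% = wells without RanGTP and RCC1; the record marks most hits as doubtful in a second field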
#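 FRET read at 45 min, room temperature: inhibitors block the CFP/YFP signal rise when RanGTP (0.6 uM Ran, 2 mM GTP, 0.2 uM RCC1) frees Rango (0.1 uM) from importin beta (0.25 uM). Pre-read after 5 min compound exposure flags interference.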
# GLA inh pH 4.5 = inhibitors of human alpha-galactosidase A at pH 4.5. P06280. AID 1467. 230,000 tested, under 10 active. activity change, negative = inhibition, % at 105 µM. purified enzyme, 4-MU-alpha-Gal fluorescence, pH 4.5; inconclusive = small, poorly fitted or top-dose-only inhibition, or a rising curve; inactive = flat fitted curve, though single readings scatter; no compound was filed as active;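 note: 0% = full activity with enzyme and -100% = basal without enzyme; dose as in the result columns while the protocol names 77 µM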
# * = called active by the depositor; ? = inconclusive; · = not tested or not shown.
SMILES,Rango complex inh,miR-21 reporter,Rango dissoc inh,GLA inh pH 4.5
CCN(c1cccc(C)c1)S(=O)(=O)c1ccc2c(c1)oc(=O)n2C,2.0%,19%,4%,·
COc1cc(OC)cc(-c2nnc(SCc3cccc(C(=O)O)c3)o2)c1,4.4%,12%,-10%,-4
O=c1c(C(c2ccc(Cl)cc2)c2c(O)nc3n(c2=O)CCS3)c(O)nc2n1CCS2,0.0%,-1%,29%,1
CC(C)C[C@H](NC(=O)N1CCCCCC1)C(=O)O,2.0%,-1%,2%,-6
CCOC(=O)C1=C(COC(=O)c2cccc(NC(C)=O)c2)NC(=O)NC1C (stereo unspecified),-0.8%,·,4%,·
CCN(CC)S(=O)(=O)c1ccc(N(C)C)c(NC(=O)C2CCCC2)c1,-4.5%,1%,2%,2
CC1=Nc2cc(C(=O)NCCCN3CCN(C)CC3)ccc2Sc2ccc(C)cc21,0.4%,-7%,11%,·
COc1ccc(NC(=O)C2C3C=CC(C3)C2C(=O)O)cc1 (stereo unspecified),-2.9%,1%,9%,-18
CN(C(=S)NC(=O)CCCOc1ccc(Cl)cc1Cl)c1ccccc1,3.0%,-21%,-13%,-7
COc1ccc(S(=O)(=O)N2CCN(C(=O)NC3CCCCC3)CC2)cc1OC,-0.1%,-4%,-1%,-3
COc1cc(-c2nc3c4ccccc4nc(=S)n3[nH]2)cc(OC)c1OC,5.2%,-2%,-1%,·
Cc1nnsc1-c1nnc(SCC(=O)c2ccc(F)cc2)n1C1CC1,3.0%,-2%,1%,-2
CC(C)NC(=S)N/N=C1\CCCCC1C1CCCCC1 (stereo unspecified),-5.1%,6%,18%,1
CC(C)(C)NC(=O)CN(C(=O)C(=O)Nc1ccc2c(c1)OCCO2)C1CCCC1,1.8%,6%,0%,·
COc1ccc(C(=O)OCC(=O)NCCCc2ccccc2)c(OC)c1,-2.2%,-6%,9%,·
O=C(O)C1(P(=O)(c2ccc(Cl)cc2)c2ccc(Cl)cc2)CC1,?,0%,-5%,5
Cc1ccc(OCCCC(=O)ON=C(N)c2ccccc2C)cc1,-2.0%,·,42%,·
Cc1ccn2c(C(=O)NN=C3CCCCCCC3)c(C)nc2c1,2.6%,-3%,0%,0
COCCOC(=O)C1=C(C)OC(N)=C(C#N)C1c1ccc2c(c1)OCO2 (stereo unspecified),-3.8%,0%,-11%,-13
Cc1ccc(NC(=O)CCN2C(=O)NC3(CCCC3)C2=O)cc1,0.4%,·,8%,·
COc1ccccc1CC(=O)Nc1cccc(C(=O)Nc2nccs2)c1,4.1%,8%,15%,8
Cc1ccc(C(=O)N2CCN(c3ccc(NC(=O)Cc4ccccc4)cc3)CC2)cc1,3.1%,3%,-25%,·
NNC(=O)c1ccc(Oc2cc(Cl)cc(Cl)c2)o1,0.9%,2%,3%,-4
COc1cc(S(=O)(=O)N2CCC(C(N)=O)CC2)c(C)cc1C,2.4%,2%,0%,2
CSc1ncc(C(=O)Nc2cccc(C)c2C)c(C)n1,-0.8%,-5%,11%,·

# Not a retest: entries from further up.
SMILES,Rango complex inh,miR-21 reporter,Rango dissoc inh,GLA inh pH 4.5
CCN(c1cccc(C)c1)S(=O)(=O)c1ccc2c(c1)oc(=O)n2C,2.0%,19%,4%,·
COc1cc(OC)cc(-c2nnc(SCc3cccc(C(=O)O)c3)o2)c1,4.4%,12%,-10%,-4
O=c1c(C(c2ccc(Cl)cc2)c2c(O)nc3n(c2=O)CCS3)c(O)nc2n1CCS2,0.0%,-1%,29%,1
CC(C)C[C@H](NC(=O)N1CCCCCC1)C(=O)O,2.0%,-1%,2%,-6
CCOC(=O)C1=C(COC(=O)c2cccc(NC(C)=O)c2)NC(=O)NC1C (stereo unspecified),-0.8%,·,4%,·
CCN(CC)S(=O)(=O)c1ccc(N(C)C)c(NC(=O)C2CCCC2)c1,-4.5%,1%,2%,2
CC1=Nc2cc(C(=O)NCCCN3CCN(C)CC3)ccc2Sc2ccc(C)cc21,0.4%,-7%,11%,·
COc1ccc(NC(=O)C2C3C=CC(C3)C2C(=O)O)cc1 (stereo unspecified),-2.9%,1%,9%,-18
CN(C(=S)NC(=O)CCCOc1ccc(Cl)cc1Cl)c1ccccc1,3.0%,-21%,-13%,-7
COc1ccc(S(=O)(=O)N2CCN(C(=O)NC3CCCCC3)CC2)cc1OC,-0.1%,-4%,-1%,-3
COc1cc(-c2nc3c4ccccc4nc(=S)n3[nH]2)cc(OC)c1OC,5.2%,-2%,-1%,·
Cc1nnsc1-c1nnc(SCC(=O)c2ccc(F)cc2)n1C1CC1,3.0%,-2%,1%,-2
CC(C)NC(=S)N/N=C1\CCCCC1C1CCCCC1 (stereo unspecified),-5.1%,6%,18%,1
CC(C)(C)NC(=O)CN(C(=O)C(=O)Nc1ccc2c(c1)OCCO2)C1CCCC1,1.8%,6%,0%,·
COc1ccc(C(=O)OCC(=O)NCCCc2ccccc2)c(OC)c1,-2.2%,-6%,9%,·
O=C(O)C1(P(=O)(c2ccc(Cl)cc2)c2ccc(Cl)cc2)CC1,?,0%,-5%,5
Cc1ccc(OCCCC(=O)ON=C(N)c2ccccc2C)cc1,-2.0%,·,42%,·
Cc1ccn2c(C(=O)NN=C3CCCCCCC3)c(C)nc2c1,2.6%,-3%,0%,0

# (more compounds)
SMILES,Rango complex inh,miR-21 reporter,Rango dissoc inh,GLA inh pH 4.5
CC1=CC(C)(C)Nc2ccc(Cc3ccc4c(c3)C(C)=CC(C)(C)N4)cc21,-1.5%,7%,-18%,10
CCOC(=O)Cc1csc(NC(=S)NC(=O)c2ccccc2Br)n1,-0.1%,-24%,1%,16
C=C(C)Cn1c(SCC(=O)N/N=C/c2ccccc2OCC(=O)O)nnc1-c1ccc(Br)cc1,-1.7%,3%,29%,6
CN(Cc1ccco1)C(=O)Cn1ncc2c([nH]c3ccccc32)c1=O,3.4%,8%,-19%,·
CCc1cccc2c(/C=N/NC(=O)c3cccc(S(=O)(=O)Nc4ccccc4Cl)c3)c[nH]c12,4.5%,-9%,-1%,0
O=C(CCNS(=O)(=O)c1ccc(Cl)cc1)OCC(=O)N1CCN(C(=O)c2ccco2)CC1,-0.3%,·,-13%,·
Cc1cnc(C(=O)OCC(=O)c2c(N)n(CC(C)C)c(=O)n(C)c2=O)cn1,-5.4%,·,8%,·
Cc1ccc(NC(=O)CSc2nnc(-c3ccc(S(=O)(=O)N4CCCC4)cc3)o2)cc1C,0.2%,-10%,-1%,-4
Cc1ccn2c(NC(C)(C)C)c(-c3cccs3)nc2c1,-2.2%,-2%,2%,4
CCOCCCNC(=O)c1cc(C)nn1-c1ccccc1,0.9%,-7%,-8%,9
CCCN1C(=O)C2C(C(=O)Nc3cccc(OC)c3)C3C=CC2(O3)C1C(=O)NC1CCCCC1 (stereo unspecified),-1.2%,-5%,-5%,-7
O=C(c1cccs1)N1CCN(S(=O)(=O)N2CCCCC2)CC1,-1.6%,-3%,0%,-5
O=S(=O)(c1ccc2c(c1)N(Cc1ccc(Cl)cc1)C1CCCN21)N1CCOCC1 (stereo unspecified),-4.0%,-4%,-12%,-17
CCN(CC)S(=O)(=O)c1ccc(N2CCCC2)c(C(=O)OCC(=O)N2CCCC2)c1,-7.3%,-11%,-4%,-8
O=C(Nc1ccc(Cl)cc1C(=O)O)c1ccc2c(c1)C(=O)N(Cc1ccco1)C2=O,3.1%,0%,1%,-24
O=S(=O)(NCCSc1ccc(Cl)cc1)c1ccc2c(c1)OCCO2,-4.8%,-5%,-9%,-1
COC(=O)c1csc(S(=O)(=O)N2CCOCC2)c1OC,-0.1%,1%,-7%,·
COC(=O)c1sccc1NC(=O)c1ccccc1F,4.5%,-5%,12%,·
COc1nc(NC(C)(C)C)nc(Oc2ccc(=O)n(C)n2)n1,-1.9%,-1%,-8%,3
COc1ccc(C(=O)Nc2cc(C)nn2-c2cccc(F)c2)cc1,0.3%,-6%,18%,·
COc1cccc(N2CCN(C(=O)CCNS(=O)(=O)c3ccc4c(c3)c(=O)n(C)c(=O)n4C)CC2)c1,3.9%,4%,13%,-6
CC(=O)N1N=C(c2ccccc2OC(=O)/C=C/c2ccccc2)CC1c1ccccc1 (stereo unspecified),?,-10%,-37%,-6
O=C(N/N=C/c1ccncc1)c1cc2c(ccc3ccccc32)o1,1.8%,-13%,-13%,5
CCCN(C(=O)c1ccc(N2CCCC2=O)cc1)C1CCS(=O)(=O)C1 (stereo unspecified),2.0%,·,1%,·
CCOc1cc(S(=O)(=O)Nc2ccccc2CC)ccc1Cl,0.0%,0%,15%,0

# Three entries already listed, sorted by their value in Rango complex inh, rising.
SMILES,Rango complex inh,miR-21 reporter,Rango dissoc inh,GLA inh pH 4.5
CCOc1cc(S(=O)(=O)Nc2ccccc2CC)ccc1Cl,0.0%,0%,15%,0
Cc1ccc(NC(=O)CSc2nnc(-c3ccc(S(=O)(=O)N4CCCC4)cc3)o2)cc1C,0.2%,-10%,-1%,-4
CN(Cc1ccco1)C(=O)Cn1ncc2c([nH]c3ccccc32)c1=O,3.4%,8%,-19%,·

# Following part
SMILES,Rango complex inh,miR-21 reporter,Rango dissoc inh,GLA inh pH 4.5
Cc1ccc(CN2C(=O)CSC2c2cccnc2)cc1 (stereo unspecified),-0.1%,3%,6%,-8
Cc1ccc(C)c(Nc2nc(-c3ccncc3)nc3ccccc23)c1,-1.9%,-2%,0%,·
COCCSc1nc2sc3c(c2c(=O)n1-c1ccccc1)CCN(C)C3,?,-6%,?,-1
N#Cc1ccc(NC(=O)c2cc(S(=O)(=O)N3CCOCC3)ccc2N2CCCC2)cc1,-0.5%,·,0%,·
COc1ccc(NC(=O)Cn2nnc3ccccc32)c([N+](=O)[O-])c1,1.2%,3%,17%,6
C=C(C)Cn1c(-c2ccccc2)nc2ccccc21,-1.3%,-2%,0%,0
COc1ccc(CCNC(=O)CCCc2ccccc2)cc1,0.0%,-6%,4%,·
COc1ccc(Cl)cc1NC(=O)COC(=O)c1c(-c2ccccc2)noc1C,-3.7%,·,0%,·
CC(C)CCC(CCNCc1ccccn1)c1ccc(Cl)cc1 (stereo unspecified),8.2%,20%,21%,·
Cc1sc2nc(SCC(=O)N3CCOCC3)[nH]c(=O)c2c1-c1ccccc1,1.0%,-5%,5%,·
COC(=O)c1ccc(NC(=O)COC(=O)COc2cccc3c2OC(C)(C)C3)cc1,0.0%,·,1%,·
NC(=O)c1nsc(C(=O)N(CC(=O)NC2CCCCC2)c2ccc(Cl)cc2)c1N,2.9%,0%,-6%,·
CCn1nc(C)c(/C=C2\CCCC3=C2OC(N)=C(C#N)C3c2c(C)nn(CC)c2C)c1C (stereo unspecified),·,11%,·,1
CCn1c(CCNC(=O)c2ccc(OC)cc2)nnc1SCc1ccc(Cl)c(Cl)c1,1.6%,9%,-7%,-30
CCc1ccc(CNC(=O)C2CCN(S(=O)(=O)N3CCC(C)CC3)CC2)cc1,3.3%,5%,3%,·
O=C1CN(C(=O)CNCc2ccccc2Cl)c2ccccc2N1,-1.9%,-5%,0%,1
C/C(=N\NC(=O)CSCc1ccccc1Cl)c1cccc(NC(=O)c2ccccc2)c1,5.6%,-11%,17%,-2
Cc1cccc(N/C(N)=N/c2nc(C(F)(F)F)cc(C(F)(F)F)n2)c1,-0.3%,-1%,-15%,-22
Cc1cc(C)n2nc(SCC(=O)N/N=C/c3ccc(F)cc3)nc2n1,2.7%,-3%,-1%,1
Cc1cccc(-[n+]2c(C)cc(C)c3c(=O)[nH]c(=O)[nH]c32)c1,-4.5%,-6%,-14%,4
CCC(C)C(NC(=O)c1ccccc1NC(=O)c1ccc(OC)cc1)C(=O)NCc1ccco1 (stereo unspecified),3.8%,4%,-17%,3

# Assay outcomes from PubChem.

# An excerpt; count on the stated rates, not on these rows.
